# CtBP-E1A blk – CtBP/E1A binding inhibition; AlphaScreen GST-E1A/His-CtBP binding, 1536-well; stronger effect = lower value; control for the full effect not named in the record; activity change, % (no concentration beside the values); 340,000 compounds, 0.49% hits; AID 651724; in the data active means activity change below about -65%; inconclusive means about -30% to -65%; inactive means above about -30%; also: % is scaled to controls: 0 for no effect and ±100 for the full control effect
#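 Steps: dispense buffer (Tris pH 8.0, NaCl 300 mM, TCEP 1 mM, BSA, Tween 20); add 5X protein mix (GST-E1A, His-CtBP, 125 nM each); pin 23 nL compound; 2 h at 37 °C, dark; add 5X beads (50 ug/mL); 1 h; read.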
# TRPV1 PAM – potentiators of human vanilloid receptor 1 (TRPV1). Q8NER1. 320,000 compounds, 0.02% hits. potentiation, % at 8.33 µM. TRPV1-expressing cells, Fluo-8 calcium influx, capsaicin EC20 potentiation; host cell line not named in the record; control for the full effect not named in the record; active means potentiation above 80%; inconclusive means 30% to 80%; inactive means below 30%; also: 0% is about no effect
# Target sequence (Q8NER1 whole entry, looked up): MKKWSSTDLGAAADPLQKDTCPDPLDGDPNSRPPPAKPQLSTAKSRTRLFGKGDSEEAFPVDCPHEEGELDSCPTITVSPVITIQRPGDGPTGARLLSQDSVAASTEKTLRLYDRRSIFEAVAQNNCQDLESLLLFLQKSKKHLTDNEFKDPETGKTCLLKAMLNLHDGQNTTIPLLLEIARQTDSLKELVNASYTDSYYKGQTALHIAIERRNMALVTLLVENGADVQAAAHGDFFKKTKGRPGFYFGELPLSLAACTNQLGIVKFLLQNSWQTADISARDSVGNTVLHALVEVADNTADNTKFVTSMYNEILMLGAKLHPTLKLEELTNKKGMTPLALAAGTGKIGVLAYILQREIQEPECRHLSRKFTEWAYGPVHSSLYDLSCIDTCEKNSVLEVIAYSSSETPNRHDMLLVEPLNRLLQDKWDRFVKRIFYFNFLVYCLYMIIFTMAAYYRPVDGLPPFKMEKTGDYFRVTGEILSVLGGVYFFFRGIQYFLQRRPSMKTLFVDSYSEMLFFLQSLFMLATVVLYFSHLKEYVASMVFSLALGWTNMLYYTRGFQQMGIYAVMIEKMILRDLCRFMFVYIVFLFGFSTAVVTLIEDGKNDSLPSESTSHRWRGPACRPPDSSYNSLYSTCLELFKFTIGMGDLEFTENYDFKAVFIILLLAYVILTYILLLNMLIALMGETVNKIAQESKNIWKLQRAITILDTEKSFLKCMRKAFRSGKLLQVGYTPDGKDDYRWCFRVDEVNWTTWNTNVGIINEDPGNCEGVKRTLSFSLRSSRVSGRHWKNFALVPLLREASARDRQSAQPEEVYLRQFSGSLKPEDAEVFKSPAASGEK
#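 TRPV1-expressing cells were cultured overnight at 35.5C and loaded with Fluo-8 calcium dye for 40 to 90 min at room temperature. After a 10 s baseline, compound was added and calcium influx was read kinetically for 3 min (ex 480/em 520 nm).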
# Six1-Eya2 blk – Six1/Eya2 interaction inhibition | Q15475+O00167 | AlphaScreen GST-Six1/His-Eya2 binding, biochemical; stronger effect = lower value; control for the full effect not named in the record | activity change, % (no concentration beside the values) | 360,000 compounds, 0.56% hits; in the data active = activity change below about -65%; inconclusive = about -30% to -65%; inactive = above about -30%; also: % is scaled to controls: 0 for no effect and ±100 for the full control effect
#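 Six1/Eya2 binding was read as AlphaScreen signal after compounds were pinned into GST-Six1 plus His-tagged Eya2 (5X stock 250/500 nM) in pH 8.0 Tris/NaCl/TCEP buffer, beads added, then incubated 1 h, 37 C, dark.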
# TRPML1 inh – blocks the human TRPML1 channel; Q9GZU1; activity change, negative = inhibition, % (no concentration beside the values); AID 624415; TRPML1-inducible cells, Ca2+ dye fluorescence, FDSS; stronger effect = lower value; inhibition of EC80 agonist-evoked calcium signal; 390,000 compounds, 0.02% hits; in the data active means activity change below about -50%; inconclusive means about -30% to -50%; inactive means above about -30%;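 also: stimulus is agonist 54-4 at its EC80 concentration; % is scaled to controls: 0 for no effect and ±100 for the full control effect; compound concentration not given in the record; the text of the record puts the active cut at -80%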
#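 Tet-induced TRPML1-DL cells loaded with Ca8 no-wash calcium dye were read kinetically on FDSS. Compound addition was followed by EC80 agonist 54-4 (4 uM final); inhibition was read over 110 s.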
# D2 potentiator – human D2 receptor positive allosteric modulation; DiscoveRx D2 beta-arrestin cells, luminescence, 90 min; 100% = 57 uM dopamine signal; 360,000 compounds, 0.23% hits; potentiation, % (test concentration not listed); P14416; active = potentiation of 50% or more; inconclusive = 30% to 50%; inactive = 30% or less;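 also: compound concentration not given in the record; tested on top of an EC20 dose of dopamine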
#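 PathHunter beta-arrestin assay in DiscoveRx D2 cells. Compounds were added with an EC20 of dopamine (50 nM final) for 90 min at 37 deg C. Luminescence was read 1 h after detection reagent, with 57 uM dopamine as the EC100 control.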
# TRPML1 ag – activates the human TRPML1 channel; 410,000 compounds, 0.12% hits; AID 624414; activation, % (test concentration not listed); Q9GZU1; TRPML1-expressing cells, Ca2+ dye fluorescence, FDSS; host cell line not named in the record; reference of the full effect not given here; in the data active = activation above about 50%; inconclusive = about 30% to 50%; inactive = below about 30%; also: 0% is about no effect; the text of the record puts the active cut at 80%
#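 Tetracycline-induced TRPML1-DL cells are seeded and incubated overnight before loading with a no-wash Ca2+ dye and quencher. Agonist activity is taken from the 110 s fluorescence read following compound pin-transfer on an FDSS, before EC80 54-4 challenge.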
# Active calls of the source: *; ? = inconclusive; . = no result given; & = joins results of further samples.
SMILES,CtBP-E1A blk,TRPV1 PAM,Six1-Eya2 blk,TRPML1 inh,D2 potentiator,TRPML1 ag
O=C(Nc1ccccc1Cl)c1cc(S(=O)(=O)N2CCC3(CC2)OCCO3)ccc1F,4.2,.,-8.6,-5.2&-8.3,-8.9,-0.1&-0.2
C=CCn1c(SCC(=O)c2c(N)n(C)c(=O)n(C)c2=O)nnc1-c1ccncc1,-14.6,?,3.9,3.7,7.7,-0.2
Cc1ccc(Cl)cc1NC(=S)N(CCN(C)C)Cc1cccs1,-13.0,7.3,-4.3,-11.5,-8.3,0.2
COCCn1c(-c2cccc(Br)c2)nc2c(c(=O)c3ccccc3n2C)c1=O,.,-3.7,-0.5,-2.2,-13.8,-0.8
CC1CCCC(NC(=S)NC(=O)c2cncc(Br)c2)C1C (stereo not drawn),0.3,-6.2,-0.9,19.8,-7.5,0.5
CCOc1cc(CN2CCCC(C(=O)c3cccc(C(F)(F)F)c3)C2)ccc1O (stereo not drawn),0.0,-12.5,-6.0,?,-20.6,0.5
O=C(N/N=C/c1cc(Br)cc(Cl)c1O)c1ccc2c(c1)OCO2,-83.2*,.,-80.8*,3.9,-12.1,1.3
O[C@@H]1[C@@H](O)C=C2CCN3Cc4cc5c(cc4[C@H]1C23)OCO5 (stereo partly drawn),-3.8,1.1,-2.1,45.1,-8.3,0.0
CCCNC(=O)Cn1nc([N+](=O)[O-])c([N+](=O)[O-])c1C,5.1,3.1,4.4,-14.9,-3.6,-0.2
O=C(O)C(=O)/C(=C\c1cccc2ccccc12)c1ccc2ccccc2n1,4.6,3.7,3.0,-7.1,-10.1,4.0
O=C1CCC(=O)N1CCCCCc1nc(-c2ccccc2)no1,0.9,-17.9,-9.5,-6.4,-29.2,0.1
CCCc1nc(N2CCN(C)CC2)c2sc(=S)n(-c3ccccc3)c2n1,-11.3,-5.5,?,31.0,-5.8,1.3
O=C(COC(=O)CCc1ccc(S(=O)(=O)N2CCOCC2)cc1)NCc1ccc(Cl)cc1,2.8,3.3,-2.5,7.1,-2.7,2.9
Cc1nn(CC(=O)Nc2ccc(S(N)(=O)=O)cc2)c(=O)c2ccccc12,9.9,-26.4,18.7,-18.9,-2.6,-0.5
CN(C(=O)c1ccccc1C(=O)OCC(=O)Nc1ccccc1)c1ccccc1,-8.0,10.3,1.5,-8.8,0.4,0.7
CCCn1c(=O)c(C(=O)Nc2c(C)n(C)n(-c3ccccc3)c2=O)c(O)c2ccccc21,-6.7,2.6,-8.9,0.2,-6.9,0.0
CCOC(=O)c1c(C)cc2c(CO)n[nH]c(=O)c2c1C,-14.4,.,10.3,-19.3,-6.2,-0.3
Cc1cccc(C)c1-n1nnnc1C1(Nc2ccccc2)CCCCC1,-0.3,-2.6,-6.4,-0.2,-10.0,3.0
COc1cccc(C(=O)COC(=O)COc2c(C)cc(C)cc2C)c1,9.4,4.3,11.2,-27.6,-0.7,3.2
Clc1ccc(-c2nnc3n2CCCCS3)cc1,-1.0,-8.8,-0.2,30.8,-25.0,0.1
O=C(CN1CCOc2ccccc21)N1CCCC1,6.9,7.3,0.2,16.5,-4.6,-0.1
CCOC(=O)C1(Cc2ccccc2Cl)CCN(S(C)(=O)=O)CC1,-0.6,-18.4,9.4,-13.7,-5.9,-0.8
CCOC(=O)C1(C)CCN1C(=O)c1cc(F)ccc1C (stereo not drawn),5.5,.,9.2,.,-9.6,-0.5
O=C(CS(=O)(=O)c1ccccc1)Nc1ccc(S(=O)(=O)Nc2ccccn2)cc1,.,-8.9,4.2,14.1,-8.7,0.4
Cc1noc(C)c1S(=O)(=O)N1CCCC(C(=O)NC2CCCCC2)C1 (stereo not drawn),8.9,2.9,-1.0,-2.7,4.9,-0.2
CCN1C(=O)[C@H]2[C@@H](c3ccc(C)cc3)N3C(=O)N(c4cccc(Br)c4)C(=O)[C@@]3(Cc3ccccc3)[C@H]2C1=O,-3.8,-32.9,-6.2,1.6,-15.1,0.0
CN1CCN(c2ccc(NC(=O)c3ccc(C#N)cc3F)cc2Cl)CC1,-3.6,-6.6,6.1,14.5,-2.3,0.9
O=C(O)CNC(=O)CC1S/C(=N/N=C2\CSC(=O)N2)NC1=O (stereo not drawn),.,10.0,-92.5*,-1.8,-17.3,0.1
Cc1cc(C)n2nc(C(=O)Nc3ccc(S(=O)(=O)N4CCCCC4)cc3)nc2n1,-1.0,4.3,-6.9,-7.5,5.5,0.0
CCN(CC)Cc1cc(Nc2c3ccccc3nc3c4ccccc4n(C)c23)cc(CN(CC)CC)c1O,-1.0,.,?,19.3,25.3,0.7
CCS(=O)(=O)NCc1cn2c(C)csc2n1,-0.8,7.6,6.0,-6.4,-3.8,-0.2
CCN(CC(=O)Nc1ccc2c(c1)OCCO2)Cc1cc(=O)oc2c(C)c(C)ccc12,6.3,-12.3,1.8,-2.3,-7.3,-0.6
CC1(C)c2ccccc2N(CC(N)=O)C12C=Cc1ccccc1O2 (stereo not drawn),0.0,-3.9,-6.0,3.2,-5.3,2.0
COc1ccc(CC(=O)NCC2CCCN(Cc3ccccc3Cl)C2)cc1 (stereo not drawn),.,-24.9,9.9,.,13.5,.
Cn1c(CNC(=O)CNC(=O)Cc2ccc(Cl)cc2)cc(=O)n(C)c1=O,3.2,?,1.5,8.1,3.4,-0.6
COC(=O)C1=C(C(=O)OC)[C@@H]2Nc3ccccc3[C@@]23C[C@@H](C(=O)OC)N(C(=O)NC2CCCCC2)C3=N1,0.0,.,0.8,-10.2,-3.3,0.3
Cc1cccc(OCCCC(=O)Nc2ccc(S(=O)(=O)Nc3onc(C)c3C)cc2)c1,-0.7,8.3,-3.5,1.7,-17.0,-0.6
CCN1CCN(CC(=O)c2cc(Cl)ccc2Cl)CC1,-2.5,15.0,3.3,-9.2,-29.1,1.0
CCOC(=O)C1(CC2CC2)CCN(Cc2cn[nH]c2-c2cccc(F)c2)CC1,.,-13.8,-1.6,47.1,-18.4,0.5
Cn1cc(CN2CCC(C(=O)Nc3cccc(-c4cccc(F)c4)c3)CC2)cn1,-3.9,-4.3,0.8,-1.1,-23.2,0.3
COc1ccc2cc(C(N)=O)/c(=N\NC(=O)c3ccccc3)oc2c1,-16.5,0.6,-6.9,-3.7,-6.9,2.9
O=C(NNC(=O)c1cc(-c2ccc(Cl)cc2Cl)nc2ccccc12)Nc1ccccc1,-4.4,18.9,3.6,22.4,-3.7,3.4
C=CCNc1nc(Nc2ccc(OC)c(OC)c2)c2sc(-c3ccccc3)cc2n1,-23.3,.,?,31.5,-8.2,1.6
COc1ccc(/C=C/c2nnc(NC(=O)CSc3ccc(C)cc3)s2)cc1,-6.8,9.7,7.7,8.2,-1.7,-0.6&0.2
COc1ccc2c(c1)nc(SCC(=O)C(C)(C)C)n2C,-10.5,2.3,-7.8,-0.3,-15.6,0.6

# Looked up one by one from the entries so far:
SMILES,CtBP-E1A blk,TRPV1 PAM,Six1-Eya2 blk,TRPML1 inh,D2 potentiator,TRPML1 ag
Cn1cc(CN2CCC(C(=O)Nc3cccc(-c4cccc(F)c4)c3)CC2)cn1,-3.9,-4.3,0.8,-1.1,-23.2,0.3
CCOC(=O)C1(CC2CC2)CCN(Cc2cn[nH]c2-c2cccc(F)c2)CC1,.,-13.8,-1.6,47.1,-18.4,0.5

# Continued:
SMILES,CtBP-E1A blk,TRPV1 PAM,Six1-Eya2 blk,TRPML1 inh,D2 potentiator,TRPML1 ag
COc1cc(C(=O)NCCC(=O)NCc2c(F)cc(F)cc2F)cc(OC)c1OC,8.7,0.8,2.1,9.6,-5.9,-0.9
CCc1nn(CC(=O)N2CCCCCC2)c(=O)c2cc3ccccc3n12,7.0,-4.2,4.2,-14.3,-5.6,0.0
COC(=O)CSc1nnc(-c2ccc(S(=O)(=O)N3CCC(C)CC3)cc2)o1,4.4,-14.2,5.2,4.5,1.1,-0.3
CCOc1cc(C2/C(=C(/O)c3ccc(OC)cc3)C(=O)C(=O)N2CC2CCCO2)ccc1O (stereo not drawn),2.4,-2.9,11.5,-6.6,-4.4,0.4
CC(=O)N1CCN(C(=O)COC(=O)/C=C/c2ccc(C(F)(F)F)cc2)CC1,?,.,-11.1,4.0,-1.3,0.2
O=C(/C=C/Sc1ncn[nH]1)c1ccc(Cl)cc1,-0.9,.,-17.1,16.6,-28.3,0.5
CCOC(=O)C1=C(COC(=O)CNC(=O)c2ccccc2F)NC(=O)NC1C (stereo not drawn),-6.5,-0.4,10.7,21.2,-11.6,0.3
CC(C)COP(=O)(c1ccc(N(C)C)cc1)C(O)c1ccc(Br)cc1 (stereo not drawn),0.6,26.6,-0.4,11.4,-5.1,2.7
Cc1cc(C)c2c(C)c(C(=O)NCc3ccncc3)oc2c1,-1.4,11.6,-3.6,41.1,-7.0,-0.6
COc1ccc(-c2csc(N(CCCN(C)C)C(=O)c3ccc(Br)cc3)n2)cc1,-9.8,19.8,-8.5,45.1,-15.6,0.1
CCOC(=O)C1=C(c2ccccc2)N=C2SCC(=O)N2C1c1cccc(OC)c1 (stereo not drawn),-7.8,-13.8,-10.2,-11.0,-23.2,1.5
S=c1[nH]ncn1/N=C/c1cccc(Oc2ccccc2)c1,-10.7,-3.1,-7.2,0.5,-11.1,-0.6
Cc1ccc(CN2CCN(/N=C/c3ccc(C(F)(F)F)cc3)CC2)c(C)c1,8.8,-6.6,-15.4,5.1,-16.4,-0.4
O=C(Oc1c(-c2ccccc2)c(=O)n2c3c(cccc13)CC2)c1ccc(Cl)cc1,5.1,-15.2,-3.9,5.3,-2.0,0.9
COc1cccc(/C=C2\SC(=S)N(C(C(=O)O)c3ccccc3)C2=O)c1OC (stereo not drawn),-8.3,5.3,4.1,3.3,-3.9,-0.2

# Sorted by molar mass (falling): part of the list above.
SMILES,CtBP-E1A blk,TRPV1 PAM,Six1-Eya2 blk,TRPML1 inh,D2 potentiator,TRPML1 ag
Cn1cc(CN2CCC(C(=O)Nc3cccc(-c4cccc(F)c4)c3)CC2)cn1,-3.9,-4.3,0.8,-1.1,-23.2,0.3
CCc1nn(CC(=O)N2CCCCCC2)c(=O)c2cc3ccccc3n12,7.0,-4.2,4.2,-14.3,-5.6,0.0
Cc1cccc(C)c1-n1nnnc1C1(Nc2ccccc2)CCCCC1,-0.3,-2.6,-6.4,-0.2,-10.0,3.0
S=c1[nH]ncn1/N=C/c1cccc(Oc2ccccc2)c1,-10.7,-3.1,-7.2,0.5,-11.1,-0.6

# (continued)
SMILES,CtBP-E1A blk,TRPV1 PAM,Six1-Eya2 blk,TRPML1 inh,D2 potentiator,TRPML1 ag
Cn1c(=O)c2ccccc2n(CC(=O)NC2CCCCC2)c1=O,-5.2,-11.3,1.4,28.2,-6.7,0.9
NNS(=O)(=O)c1ccc(Cc2ncc(C(F)(F)F)cc2Cl)s1,2.6,7.0,0.6,-8.6,-2.4,-0.7
C=CCn1c2ccccc2c2n[nH]c(=S)nc21,.,3.8,1.0,2.5,-50.8,-1.0
CCn1c(SCC(=O)Nc2cccc(C)n2)nnc1-c1ccco1,3.8,3.0,3.0,-6.3,-8.3,0.8
CCCCOc1ccc(C(=O)Nc2ccncc2)cc1,0.6,-6.5,-0.4,-7.1,20.4,-1.3
O=C(c1ccc(Cl)s1)N1CCCC(N2CCN(c3ccc(F)cc3)CC2)C1 (stereo not drawn),-12.8,7.6,-10.6,4.2,-36.9,0.9
COc1ccccc1C(=O)Nc1ccc(Br)c2cccnc12,.,6.7,7.7,-8.9,7.4,-0.3
